# Assay outcomes: PubChem, National Center for Advancing Translational Sciences (NCATS)
# Six1-Eya2 blk = qHTS Assay for Inhibitors of the Six1/Eya2 Interaction | Homeobox protein SIX1 (Homo sapiens) + Protein phosphatase EYA2 (Homo sapiens), … | AlphaScreen GST-Six1/His-Eya2 binding, biochemical; stronger effect = lower value; control for the full effect not named in the record | activity change, % (test concentration not listed) | 360,000 tested, 0.56% active | AID 651725, 2012; in the data active = activity change below about -65%; inconclusive = about -30% to -65%; inactive = above about -30%; further: on the % scale 0 is the no-effect control and ±100 the full control effect; compound concentration not given in the record
#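 Homogeneous AlphaScreen proximity assay pairing GST-Six1 with His-tagged Eya2 (added as 5X mix: 250 nM and 500 nM) in 50 mM Tris pH 8.0, 300 mM NaCl, 1 mM TCEP. Glutathione donor and nickel acceptor beads; 1 h, 37 °C, dark.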
# TRPML1 agonist = qHTS for Agonists of the Human Mucolipin Transient Receptor Potential 1 (TRPML1); Mucolipin-1 (Homo sapiens), Q9GZU1; TRPML1-expressing cells, Ca2+ dye fluorescence, FDSS; host cell line not named in the record; reference of the full effect not given here; activation, % (concentration not given with the values); 410,000 tested, 0.12% active; in the data active = activation above about 50%; inconclusive = about 30% to 50%; inactive = below about 30%; further: 0% is about no effect; the text of the record puts the active cut at 80%
# Target sequence (Q9GZU1 whole entry, looked up): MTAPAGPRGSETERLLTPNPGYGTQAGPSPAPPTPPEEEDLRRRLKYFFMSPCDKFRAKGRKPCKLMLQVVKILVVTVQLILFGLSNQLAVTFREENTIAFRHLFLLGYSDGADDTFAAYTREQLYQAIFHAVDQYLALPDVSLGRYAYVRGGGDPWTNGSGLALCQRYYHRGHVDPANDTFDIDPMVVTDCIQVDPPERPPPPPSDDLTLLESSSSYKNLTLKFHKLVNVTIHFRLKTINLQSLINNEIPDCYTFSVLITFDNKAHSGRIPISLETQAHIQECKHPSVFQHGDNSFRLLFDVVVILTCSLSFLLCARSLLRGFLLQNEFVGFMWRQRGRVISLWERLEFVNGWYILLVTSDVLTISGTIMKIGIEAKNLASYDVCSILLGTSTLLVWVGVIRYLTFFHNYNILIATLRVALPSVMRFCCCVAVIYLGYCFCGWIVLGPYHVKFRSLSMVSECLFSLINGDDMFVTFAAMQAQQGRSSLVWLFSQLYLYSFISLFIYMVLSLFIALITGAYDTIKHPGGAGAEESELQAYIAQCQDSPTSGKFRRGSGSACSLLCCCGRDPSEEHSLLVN
#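 Tet-induced TRPML1-DL cells, 1,500 per well, cultured overnight, were loaded with a no-wash Ca2+ dye for 45–90 min. Calcium fluorescence was recorded on the FDSS for 110 s after compound addition, before the EC80 agonist (4 uM 54-4) was added.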
# D2 PAM = Beta-Arrestin HTS for Positive Allosteric Modulators of the Human D2 Dopamine Receptor: Potentiators. D(2) dopamine receptor (Homo sapiens), P14416. DiscoveRx D2 beta-arrestin cells, luminescence, 90 min; 100% = 57 uM dopamine signal. potentiation, % (test concentration not listed). 360,000 tested, 0.23% active; active = potentiation of 50% or more; inconclusive = 30% to 50%; inactive = 30% or less;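 further: compound concentration not given in the record; tested on top of an EC20 dose of dopamine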
# Target sequence (P14416 whole entry, looked up): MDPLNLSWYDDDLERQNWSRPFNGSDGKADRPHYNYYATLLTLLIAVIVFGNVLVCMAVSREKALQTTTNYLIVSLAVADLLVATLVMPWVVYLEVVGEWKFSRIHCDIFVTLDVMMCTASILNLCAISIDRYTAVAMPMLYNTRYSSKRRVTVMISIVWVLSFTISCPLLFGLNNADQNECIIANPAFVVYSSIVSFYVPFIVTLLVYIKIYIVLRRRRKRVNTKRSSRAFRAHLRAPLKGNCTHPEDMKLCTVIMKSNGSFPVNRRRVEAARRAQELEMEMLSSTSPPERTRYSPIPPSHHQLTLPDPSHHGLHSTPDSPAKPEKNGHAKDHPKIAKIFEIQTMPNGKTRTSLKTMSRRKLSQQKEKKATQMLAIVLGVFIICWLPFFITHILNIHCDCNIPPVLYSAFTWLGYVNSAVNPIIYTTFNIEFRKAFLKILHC
#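 D2 cells co-treated with compound plus 50 nM dopamine (EC20) for 90 min at 37 deg C to detect potentiation. Beta-arrestin recruitment was read as enzyme-fragment luminescence after 1 h at ambient temperature. Full response was set by 57 uM dopamine.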
# D2 ag = Beta-Arrestin HTS for Positive Allosteric Modulators of the Human D2 Dopamine Receptor: Agonists; D(2) dopamine receptor (Homo sapiens), P14416; DiscoveRx PathHunter D2 beta-arrestin, luminescence, 90 min; 100% = 57 uM dopamine signal; activation, % (no concentration beside the values); 360,000 tested, 0.084% active; in the data active = activation above about 40%; inconclusive = about 15% to 40%; inactive = below about 15%; further: compound concentration not given in the record; the text of the record calls up to 30% inactive
#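 Agonist mode: compounds alone added to overnight-plated D2 PathHunter cells for 90 min at 37 C, with 57 uM final dopamine (EC100) defining full response. Beta-arrestin recruitment detected by chemiluminescent reagent, read after 1 h at ambient temperature.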
# TRPML1 blocker = qHTS for Inhibitors of the Human Mucolipin Transient Receptor Potential 1 (TRPML1); activity change, negative = inhibition, % (concentration not given with the values); TRPML1-inducible cells, Ca2+ dye fluorescence, FDSS; stronger effect = lower value; inhibition of EC80 agonist-evoked calcium signal; 390,000 tested, 0.02% active; AID 624415, 2012; Mucolipin-1 (Homo sapiens), Q9GZU1; in the data active means activity change below about -50%; inconclusive means about -30% to -50%; inactive means above about -30%;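 further: stimulus is agonist 54-4 at its EC80 concentration; on the % scale 0 is the no-effect control and ±100 the full control effect; compound concentration not given in the record; the text of the record puts the active cut at -80%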
#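 Calcium fluorescence in TRPML1-DL cells induced overnight with Tet: a 110 s read after compound pin addition, then a 110 s antagonist read after challenge with 54-4 at 4 uM final (EC80).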
# PINK1 modulator = A Quantitative High throughput Screen to Identify Chemical Modulators of PINK1 Expression; PINK1 immunofluorescence, high-content cytometry, 24 h; Potency, µM (highest dose often 76.6 µM), for the others: top-dose activation (PINK1 increase), most hits filed as activators; 410,000 tested, 0.2% active; AID 624263, 2012; active = well fitted activation curve with a large enough effect; inconclusive = small, poorly fitted or top-dose-only effect; inactive = flat fitted curve, though single readings scatter; cell line not stated here;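 further: potency means the concentration at half of the fitted maximal effect; % of control where 0% means no effect; nearly all actives have a fitted effect of over 65% in size; a mitochondrial uncoupler was the plate control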
#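 PINK1 protein level read as immunofluorescence by microplate cytometer in a fixed, stained stable cell line after 24 h exposure to five compound concentrations, with CCCP as control.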
# * hit, by the source's call; ? = inconclusive; . = not tested or not shown; [ ] = another dose, or the depositor's remark.
smiles	Six1-Eya2 blk	TRPML1 agonist	D2 ag	PINK1 modulator	TRPML1 blocker	D2 PAM
COC(=O)COc1ccc(S(=O)(=O)N2CCCCCC2)cc1C	1	0.7	-2.3	-0.6%	-3	-6
N=c1c(C(=O)NCc2ccc(F)cc2)cc2c(=O)n3ccccc3nc2n1CC1CCCO1 (configuration not stated)	9	-1.0	-4.9	0.6%	4	3
COC(=O)c1c(-c2ccncc2)csc1NC(=O)c1ccoc1C	-11	1.0	-0.9	-20%[38.3 µM]	51	-5
CC(=O)Nc1ccc(NS(=O)(=O)c2cc(-c3cnc(C4CC4)o3)ccc2C)cc1	-6	0.3	2.3	5.8%	-5	-8
CC1CCc2c(sc3c2C2=NS(=O)(=O)CCN2C=N3)C1 (configuration not stated)	-4	-0.7	-1.7	-1.2%	11	-8
CCOc1ccc(Oc2ccccc2NC(=O)CCc2nc3ccccc3c(=O)[nH]2)cc1	-3	0.7	-2.6	2.8%	2	-10
O=C1OC(NC(=O)c2ccccc2)C(n2cc(CO)nn2)=C1Cl (configuration not stated)	?	-0.1	-1.3	-1.1%	1	-3
CCOC(=O)N1CCN(C(=O)c2cccc(NC3=NC4CS(=O)(=O)CC4S3)c2)CC1 (configuration not stated)	-2	-0.3	-2.0	?	-7	-3
CCC1=NC(c2ccccc2OC)N(O)C1(C)C (configuration not stated)	-1	0.0	0.1	0.2%[38.3 µM]	2	-10
CCOC(=O)c1scc(-c2ccccc2)c1S(=O)(=O)Nc1cc(OC)cc(OC)c1	.	1.5	.	-0.1%	-8	.
CC(=O)c1cc(C#N)c(N2CC(C)OC(C)C2)nc1C (configuration not stated)	-2	0.0	4.2	-1.9%	1	3
Cc1ccc(NC(=O)C(C)NS(=O)(=O)c2ccc(F)cc2)cc1C (configuration not stated)	9	-0.5	-1.1	1.4%	0	-5
COc1ccc(C(=O)Nc2cc(OCc3ccccc3)c(Cl)cc2Cl)cc1	12	2.4	-4.3	12%	17	-15
CC(=O)NC(C(=O)c1ccccc1)N1CCCCC1 (configuration not stated)	-6	0.2	-3.2	-0.3%	-2	-7
CCn1c(SCC(=O)Nc2nc(C)c(C)s2)nnc1-c1cccs1	-8	0.9	0.9	0.9%	-1	-2
COc1ccc(-c2nn(-c3cccc([N+](=O)[O-])c3)c3c2cnc2cc4c(cc23)OCO4)cc1	.	1.0	.	1.3%	18	.
COc1cc(C=C2C(=O)c3ccccc3C2=O)cc(OC)c1	-2	2.2	-2.7	-0.2%	11	-3
COC(=O)CCC(=O)OC1(C)C(=O)C2=CN(CC3CC3)C(c3ccc(OC)cc3)=CC2=C(Br)C1=O (configuration not stated)	-2	1.3	6.8	3.7%	15	-7
CCC1=Nc2ccc(Br)cc2C(c2ccccc2)N1CC(=O)OC (configuration not stated)	-12	1.7	-3.6	5.5%	21	-20
COc1ccc(/C=C2\CCC/C(=C\C=N\N(C)C)C2=O)cc1	-3	1.3	-4.4	-0.4%	9	-14
N/C(CCN1CCCCC1)=N/O	0	0.2	-4.8	0.5%	-11	-14
COC(=O)c1cc(Br)c(=O)n(-c2cc(C)on2)c1	2	0.7	0.3	4.3%	21	1
O=C(OCCC12CC3CC(CC(C3)C1)C2)c1ccc(NCc2cc(O)ccc2O)cc1	?	0.0	?	-0.2%	-10	64*
Cn1c(SCc2ccc(C#N)cc2)nnc1-c1ccccc1	-2	3.7	-0.9	-0.4%	-20	0
CCN1/C(=C\C=C2\C(=O)N(c3ccccc3)C(=S)N2C)Sc2ccccc21	6	0.7	-2.8	-0.5%	-16	-4
COC(C(=O)NCc1ccccc1C)c1ccccc1 (configuration not stated)	8	-0.3	0.5	-1.3%	-5	0
C#CCN(C[C@H]1[C@H](OC(=O)NCc2ccccc2F)[C@H](OC(=O)NCc2ccccc2F)C[C@@H](C(=O)OC)[C@H]1C(=O)OC)S(=O)(=O)c1ccc(C)cc1	20	0.6	-0.6	0.7%	-19	0
CN(C)CCCOc1ccc(-c2ccc3nncn3c2)cn1	-6	-0.6	-3.4	0.5%	.	-1
Cc1ccsc1C(=O)NCCc1nnc2ccccn12	1	5.4	1.2	0.5%	3	-5
Cn1nccc1C(=O)N1CCN(c2ccc(F)cc2)CC1	3	-0.1	0.5	0.9%	-17	-3
Cc1cc(C)c(O)c(C2(O)C(=O)c3ccccc3C2=O)c1	1	0.9	0.4	3.3%	-3	-10
COC(=O)c1cc(-c2ccc(OC)cc2F)nc2nc(SC)[nH]c(=O)c12	44	0.4	-2.5	-0.7%	-27	-3
COc1cccc(CN(C)C(=O)CCN=C2NS(=O)(=O)c3ccccc32)c1OC	-1	0.0	3.7	0.8%	-3	-3
CC(C)OC(=O)NS(=O)(=O)c1cccc([N+](=O)[O-])c1	8	-0.4	-2.8	-0.3%	-25	-3
OC[C@H]1OC(O)C[C@@H](O)[C@@H]1O (some centres not stated)	3	-0.6	-2.3	0.2%	1	-1
CC(=O)Nc1ccccc1C(=O)N1CC2(C)CC1CC(C)(C)C2 (configuration not stated)	-2	-0.8	-2.8	-1.0%	1	5
CCOC(=O)c1cnc2nc(C(F)(F)F)[nH]n2c1=O	0	0.2	1.4	-0.5%	-9	1
O=C(CS(=O)Cc1ccccc1Cl)Nc1ccccc1Cl (configuration not stated)	6	-0.9	1.4	-1.4%	-7	-6
CCOc1ccc(/C=C/C(=O)N(CC)CC(=O)Nc2ccc3c(c2)OCCO3)cc1OCC	-1	3.1	-5.2	3.2%	16	-51
Cc1cc(C)cc(NC(=O)CSc2nnc(NC(=O)C3CC3)s2)c1	5	-0.2	-1.2	0.6%	14	-8

# Sorted by the number under TRPML1 blocker (highest first): 4 from the list above
SMILES	Six1-Eya2 blk	D2 ag	PINK1 modulator	TRPML1 blocker	D2 PAM
CC(=O)Nc1ccccc1C(=O)N1CC2(C)CC1CC(C)(C)C2 (configuration not stated)	-2	-2.8	-1.0%	1	5
COc1cccc(CN(C)C(=O)CCN=C2NS(=O)(=O)c3ccccc32)c1OC	-1	3.7	0.8%	-3	-3
CCOC(=O)c1cnc2nc(C(F)(F)F)[nH]n2c1=O	0	1.4	-0.5%	-9	1
CC(C)OC(=O)NS(=O)(=O)c1cccc([N+](=O)[O-])c1	8	-2.8	-0.3%	-25	-3

# Going on with the list.
smiles	Six1-Eya2 blk	TRPML1 agonist	D2 ag	PINK1 modulator	TRPML1 blocker	D2 PAM
Cc1oc(S(=O)(=O)N2CCCCC2)cc1NC(=O)Nc1ccc(Cl)cc1	-3	0.0	5.7	7.9%	-19	-9
COc1cccc(-c2oc3c(c2C#CCCO)C(O)CCC3)c1 (configuration not stated)	3	-0.1	.	-0.1%	.	.
COc1ccc([C@@H]2C[C@H]3[C@@H](CN2S(=O)(=O)c2ccccc2)C(=O)C[C@@H](c2cccc(Cl)c2)N3S(=O)(=O)c2ccc(C)cc2)cc1	-7	1.0	3.6	1.2%	16	-1
O=S(=O)(NCc1cn2ccsc2n1)c1ccc(Oc2ccccc2)cc1	0	1.3	-0.6	-1.4%	-11	0
CCOC(=O)c1cc(C(=O)Nc2sc3c(c2C#N)CCCC3)nn1C	4	-0.3	4.2	1.8%	4	-6
Cc1cccc(N2CC(C(=O)NCC3COc4ccccc4O3)CC2=O)c1C (configuration not stated)	-22	-0.2	0.0	1.9%	3	-2
CC(C)CN1CCCC(N2CCN(c3cccc(Cl)c3)CC2)C1 (configuration not stated)	0	0.1	5.2	2.8%	17	-9
O=C(NCC(=O)N(c1cccnc1)C(C(=O)NC1CCCC1)c1ccco1)c1cccs1 (configuration not stated)	-4	-0.7	-5.0	1.9%	-5	-16
CCOC(=O)c1ccc(S(=O)(=O)N2CC(=O)Nc3ccccc32)cc1	-1	-0.9	-0.6	2.0%	-7	2
COc1ccc(CCNC(=O)c2ccc(=O)[nH]c2)cc1	12	0.6	-0.1	-2.3%	33	1
Cc1nn(CCCC(=O)NCc2ccccc2)c(=O)c2c1sc1ccccc12	.	0.9	.	0.4%	30	.
COc1ccccc1NC(=S)NC(=O)C(C)(C)C	-3	1.7	-3.3	28%[38.3 µM]	-3	-1
CC(C)(C)C1CCc2c(sc(NC(=O)c3ccncc3)c2C(N)=O)C1 (configuration not stated)	-3	2.8	10	5.3%	3	-5
COC(=O)C(C)(C)ONC(=O)Nc1ccc(C)cc1	6	-0.4	4.2	2.8%	-2	-4
CCN(c1ccccc1)c1nnc(NC(=O)Nc2ccc(Br)c(C)c2)s1	.	-1.0	.	-1.0%	0	.
Cc1nnn(C23CC4CC(CC(CC(=O)Nc5ccc(C)c(Cl)c5)(C4)C2)C3)n1	-6	1.4	0.7	6.0%	4	-23
Cc1cc(C)c2c(=O)[nH]n(C(C)C)c2n1	-1	1.8	-2.8	0.7%	-6	-14
CC(NC(=O)Cn1cc(Br)c([N+](=O)[O-])n1)c1ccccc1 (configuration not stated)	-14	-1.2	-1.5	0.0%	16	-23
Cc1noc(C)c1NC(=O)N(C)C[C@H]1Oc2c(NC(=O)Nc3ccc(C(F)(F)F)cc3)cccc2C(=O)N([C@H](C)CO)C[C@@H]1C	1	0.0	-2.6	1.8%	-10	-5
COc1cc(/C=N/Nc2ccccc2)ccc1O	-6	-0.5	-0.3	11%	4	1
Cc1onc(-c2c(Cl)cccc2Cl)c1C(=O)N1CCCc2ccccc21	-1	0.8	-7.4	.	19	-9
O=C(Nc1cccc(C(F)(F)F)c1)C1Cc2c(-c3ccccc3)ccnc2O1 (configuration not stated)	1	1.5	-1.9	?	26	-18
S=c1[nH]nc(COc2ccc(Cl)cc2)n1-c1ccccc1	7	0.2	7.6	1.3%	-6	-5
CCOC(=O)C(Cc1ccc(Cl)cc1Cl)c1ccno1 (configuration not stated)	2	0.8	-1.7	4.3%	2	0
O=C(c1cccc(F)c1)N1CCN(c2cc(N3CCCCC3)c(F)cc2[N+](=O)[O-])CC1	-2	-0.1	-1.5	2.2%[38.3 µM]	-6	-9
CCC(C)(C)NCC(=O)Nc1ccc(OC(F)(F)F)cc1	5	-0.2	-2.8	-0.4%	1	-11
Cc1ccc(C2c3c(oc4ccccc4c3=O)C(=O)N2c2nncs2)cc1 (configuration not stated)	3	1.5	0.8	7.3%	-21	0
